Assay outcomes: PubChem, ICCB-Longwood Screening Facility, Harvard Medical School
Sa growth 42C: blocks Staphylococcus aureus growth. S. aureus RN4220 growth, OD600, 20 h, 42 °C; active compounds read low. relative growth, % (no concentration beside the values). 170,000 compounds, 0.53% hits. AID 720641;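 active = growth at 42 °C up to 50% and 20 or more points under that at 30 °C, or under 10% at both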;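 also: 300 nL library stock went into each well; scaled to the means of positive and negative controls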
HCMV NEC inh: inhibitors of HCMV UL50-UL53 nuclear egress complex interaction; inhibition, % (test concentration not listed); HTRF UL50-UL53 interaction, normalized percent inhibition; 190,000 compounds, 0.15% hits;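 active = both replicates at 50% or more, plus weaker picks with an unusually low signal ratio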;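 also: stock transfer was 100 nL into about 20 µL; 0% = negative control wells and 100% = wells with untagged competitor protein; inactives centre near -12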
GIV Gai3 FP: blocks GIV peptide binding to rat Galpha-i3; Galpha-i3/FITC-GIV peptide fluorescence polarization, 90 min; active compounds read low; scaled: aluminum fluoride 0%, vehicle 100%; percent of control (FP), % (test concentration not listed); 210,000 compounds, 0.42% hits;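 active = replicate mean at 85% of control or lower, very high polarization wells dropped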;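 also: lower values mean more displacement of the GIV peptide from Galpha-i3; wells of about 15 µL received 100 nL stock; the first replicate is given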
Target sequence (P08753 whole entry, looked up): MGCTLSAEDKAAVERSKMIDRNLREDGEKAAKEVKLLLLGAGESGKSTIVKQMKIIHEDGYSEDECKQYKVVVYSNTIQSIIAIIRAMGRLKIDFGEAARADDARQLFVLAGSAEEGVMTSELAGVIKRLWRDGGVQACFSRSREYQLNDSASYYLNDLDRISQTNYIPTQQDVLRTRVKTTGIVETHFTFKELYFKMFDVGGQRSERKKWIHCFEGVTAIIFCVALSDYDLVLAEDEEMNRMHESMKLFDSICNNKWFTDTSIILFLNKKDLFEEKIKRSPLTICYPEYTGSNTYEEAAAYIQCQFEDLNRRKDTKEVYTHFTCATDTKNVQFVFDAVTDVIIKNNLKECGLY
Sa growth 42C second temp: recorded beside Sa growth 42C, whose call it bears; relative growth, %; measured here: growth at 30 °C;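 optical density after 20 h as mean of two plates; 100% = untreated growth and lower means inhibition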
Active calls of the source: *; . = no result given; & = joins results of further samples.

Start of the data: the first seven records, ahead of the listing:
SMILES | Sa growth 42C | Sa growth 42C second temp | HCMV NEC inh | GIV Gai3 FP
Cc1onc(-c2ccccc2)c1C(=O)N(Cc1ccccc1)Cc1ccccc1 | 87.9 | 88.4 | . | 109.5
O=C(c1nc(-c2ccccc2)n(-c2ccc(Cl)cc2)n1)N1CCCC1 | . | . | -11.3 | 100.7
O=C(O)c1cc(=O)[nH]c2ccc(S(=O)(=O)N3CCOCC3)cc12 | 103.2 | 89.4 | -13.7 | .
CCOC(=O)c1ccc(N=Cc2ccc(Cl)c(Cl)c2)cc1 | 98.7 | 97.1 | -6.6 | 105.4
CCOC(=O)c1cc(NC(=O)c2ccc(Cl)cc2)c(=O)n2c1oc1ccccc12 | 91.3 | 89.5 | -24.9 | 99.8
Cc1ccccc1NC(=O)Cn1c(=O)n(Cc2ccccc2)c(=O)c2sc3ccccc3c21 | 113.2 | 87.0 | -26.1 | 100.2
Cc1cc(C)c(S(=O)(=O)Nc2ccc(N3CCOCC3)cc2C(=O)O)cc1C | . | . | -16.6 | 104.3

Results, previewed entries included:
SMILES | Sa growth 42C | Sa growth 42C second temp | HCMV NEC inh | GIV Gai3 FP
Cc1onc(-c2ccccc2)c1C(=O)N(Cc1ccccc1)Cc1ccccc1 | 87.9 | 88.4 | . | 109.5
O=C(c1nc(-c2ccccc2)n(-c2ccc(Cl)cc2)n1)N1CCCC1 | . | . | -11.3 | 100.7
O=C(O)c1cc(=O)[nH]c2ccc(S(=O)(=O)N3CCOCC3)cc12 | 103.2 | 89.4 | -13.7 | .
CCOC(=O)c1ccc(N=Cc2ccc(Cl)c(Cl)c2)cc1 | 98.7 | 97.1 | -6.6 | 105.4
CCOC(=O)c1cc(NC(=O)c2ccc(Cl)cc2)c(=O)n2c1oc1ccccc12 | 91.3 | 89.5 | -24.9 | 99.8
Cc1ccccc1NC(=O)Cn1c(=O)n(Cc2ccccc2)c(=O)c2sc3ccccc3c21 | 113.2 | 87.0 | -26.1 | 100.2
Cc1cc(C)c(S(=O)(=O)Nc2ccc(N3CCOCC3)cc2C(=O)O)cc1C | . | . | -16.6 | 104.3
Cc1cc(C)n(CCOc2ncc(C(F)(F)F)cc2Cl)n1 | . | . | -5.4 | 102.9
CC(=O)Oc1ccccc1N(/C=C1/Sc2ccccc2C1=O)C(C)=O | . | . | -41.7 | 244.5
COc1ccc(Nc2nc(C)c3ncn(-c4ccc(OC)cc4)c3n2)cc1 | . | . | -8.4 | 111.8
Cn1cccc1Cc1nnc(SCC(=O)NCc2ccco2)n1CCc1ccccc1 | 97.7 | 90.8 | . | 98.6
Cc1ccc(-n2ncc(C(=O)NCc3ccco3)c2C2CCN(C(=O)OC(C)(C)C)CC2)cc1C | 99.1 | 91.6 | . | 107.1
COC(=O)c1ccccc1N1CC(C)(C)C1=O | . | . | -23.1 | 101.3
COC(=O)CCCN=C1SCCN1Cc1ccccc1 | 103.7 | 95.7 | -16.6 | .
O=C1CC(c2ccco2)CC(O)=C1C=NCC1CCNCC1 (stereo unspecified) | 100.1 | 98.0 | -3.3 | 102.2
O=C(c1ccccc1Cl)N1CCCCC1CCN1CCCCC1 (stereo unspecified) | . | . | -1.5 | 106.2
Cc1ccc(SCCC(=O)O)cc1 | 108.5 | 88.8 | -20.5 | .
O=C(C(c1ccccc1)c1ccccc1)N1CCOCC1 | 102.0 | 91.0 | -6.7 | 101.0
Cc1n[nH]c(=O)c2c(C)n(-c3ccccc3)nc12 | . | . | -26.1 | 100.7
O=C(O)c1ccccc1C(=O)NCCCn1ccnc1 | 94.4 | 88.7 | -3.0 | .
CCOC(=O)c1cc(S(=O)(=O)NCc2cccc(Cl)c2)[nH]n1 | 85.9 | 83.4 | . | 101.9
CCN(CC)C(=O)COc1coc(CN2CCN(c3ccccc3)CC2)cc1=O | 81.3 | 87.7 | -23.4 | 99.1
Cc1cc(C(=O)CSc2nc(N)nc(N)n2)c(C)n1C1CCS(=O)(=O)C1 (stereo unspecified) | 99.0 | 89.6 | -0.9 | .
COc1ccc(NC(=O)CCN2C(=O)/C(=C\c3cccs3)SC2=S)cc1 | . | . | -0.3 | 105.3
C=CCOC(=O)C1=C(C)NC2=C(C(=O)CC(c3ccc(OC)cc3)C2)C1c1ccc(OCC)c(OC)c1 (stereo unspecified) | . | . | -13.4 | 99.9
CCC(=O)c1ccc(OCC(=O)N2c3ccccc3CC2C)cc1 (stereo unspecified) | 96.9 | 82.6 | -33.1 | .
COC(=O)c1c(NC(=O)c2snnc2C)sc2c1CCC2 | . | . | -7.8 | 94.7
COc1ccc(C(C)(C)C)cc1NC(=O)COC(=O)C(C)C | 89.6 | 94.5 | -12.3 | .
Cn1c(CNC(c2ccccc2)c2ccccc2)nc2ccccc21 | 88.1 | 92.5 | -6.2 | 101.5
Cc1cc(Cl)nc(Cl)c1C(N)=O | 94.4 | 87.7 | 4.6 | .
Clc1cccc(CSc2nncn3c2cc2sccc23)c1 | 119.8 | 94.1 | . | 106.2
Cc1cccc(NC(c2ccccc2C)c2ccc3ccc(C)nc3c2O)n1 (stereo unspecified) | 76.7 | 85.7 | -39.0 | 103.2
CN1/C(=C\C(=O)Cn2nnc(-c3ccccc3)n2)C(C)(C)c2ccccc21 | 120.0 | 84.5 | -9.3 | .
CCn1c(-c2ccccc2)n[nH]c1=S | 91.2&101.3 | 81.8&58.8 | 1.9 | 103.9&94.5
Cc1cc(C)cc(C(=O)Nc2cc(C)c3c(=O)oc4ccccc4c3n2)c1 | 105.0 | 80.1 | -6.4 | 105.0
O=S1(=O)N=C(Nc2ccccc2)c2ccccc21 | 102.9 | 92.3 | -22.5 | .
Cc1ccc(-c2nnc(-c3ccccc3)o2)cc1 | 84.8 | 73.6 | -15.1 | .
CSc1cc(C(C)(C)C)nn1S(=O)(=O)c1ccc(F)cc1F | 95.2 | 90.0 | -21.0 | 104.3
CCn1c(C(=O)N2CCCCC2)cc2sccc21 | 107.8 | 83.4 | -3.0&-11.8 | 109.5&102.6
CCc1ccc(N2C(=O)CSC23C(=O)N(Cc2cccc(OC)c2)c2ccccc23)cc1 (stereo unspecified) | 105.7 | 92.6 | . | 100.6

Retrieved by compound from the entries so far (two):
SMILES | Sa growth 42C | Sa growth 42C second temp | HCMV NEC inh | GIV Gai3 FP
Cc1cc(Cl)nc(Cl)c1C(N)=O | 94.4 | 87.7 | 4.6 | .
COc1ccc(C(C)(C)C)cc1NC(=O)COC(=O)C(C)C | 89.6 | 94.5 | -12.3 | .

Following part.
SMILES | Sa growth 42C | Sa growth 42C second temp | HCMV NEC inh | GIV Gai3 FP
CCCCn1c(CCCO)nc2ccccc21 | 101.3 | 86.9 | 5.6 | 107.1
COc1ccc(C(NC(C)=O)c2ccc3cccnc3c2O)cc1 (stereo unspecified) | 26.5 | 13.9 | -40.8 | 98.0&104.2
Cc1ccc(C(=O)NCC(=O)OCc2c(F)cccc2Cl)s1 | 111.2 | 73.7 | -23.6 | .
COc1ccccc1NC(=O)CSc1nnc2c(n1)[nH]c1ccccc12 | 100.4 | 84.3 | -44.8 | 106.0
Cn1cnc2c(=O)oc3ccc(S(=O)(=O)NC4CCCCC4)cc3c21 | . | . | -2.7 | 118.2
Cc1ccc2nc(C)c(CN3CCN(C(=O)/C=C/c4ccc(C#N)cc4)CC3)n2c1 | 97.2 | 96.1 | -12.5 | .
C=CCn1c(SCC(=O)NCc2ccc3c(c2)OCO3)nc2scc(-c3ccc(F)cc3)c2c1=O | . | . | -11.2 | 102.5
Cc1cc(C)n(-c2nnc(C)n2NS(=O)(=O)c2ccc(F)cc2)n1 | 85.1 | 78.0 | -33.5 | 104.6
Cc1ccc(NCc2cccn2-c2nnc(N3CCC(C(=O)NCc4ccccc4C)CC3)s2)cc1 | 108.9 | 97.2 | -1.2 | 97.9
O=C(COc1ccccc1)NCc1cccs1 | 115.9 | 93.9 | 1.5 | .
COc1cccc(C2C=C(c3ccc(C)cc3)Nc3c(C(=O)Nc4ccc(F)cc4)cnn32)c1OC (stereo unspecified) | 100.4 | 96.9 | . | 101.5
COc1cccc(CN2C(=O)c3ccccc3Sc3ccc(C(=O)NC4CCCC4)cc32)c1 | . | . | -12.8 | 102.5
Cc1cc(N2CCCC2)nc2ccc(NC(=S)NC(C)C)cc12 | 66.4 | 74.4 | . | 98.4
Cn1c(=O)cc(SCC(=O)N2CCN(c3ccc(F)cc3)CC2)c2ccc(Cl)cc21 | 106.4 | 94.4 | -6.5 | 105.0
CC(SCc1n[nH]c(=O)[nH]1)C(=O)Nc1nccs1 (stereo unspecified) | 103.9 | 98.0 | -2.4 | 98.1
O=C(c1ccc2c(c1)N(Cc1ccccc1)CCS2)N1CCCCC1 | 116.9 | 74.2 | -4.9 | 102.3
CCOC(=O)c1ccc(N2C(=O)c3[nH]nc(-c4ccc(C)cc4)c3C2c2cccs2)cc1 (stereo unspecified) | 97.0 | 92.3 | -30.4 | 107.3
Cc1ccccc1C(=O)Nc1cccc(NC(=O)c2ccc(C(C)(C)C)cc2)c1 | 102.2 | 100.8 | -11.4 | 113.4
Clc1ccc(-c2noc(-c3cccnc3NCc3ccco3)n2)cc1 | 93.4 | 87.4 | -20.8 | 100.2
CCOC(=O)c1sc(NC(=O)c2cccs2)cc1C | 98.0 | 99.8 | 3.6 | .
CCOc1ccc(N(CC)C(=O)c2cc3c(s2)-c2ccc(Cl)cc2SC3)cc1 | 98.0 | 92.0 | -1.1 | 108.4
O=C(NC1CCCCCC1)c1cc2ccccc2c(=O)[nH]1 | 116.5 | 87.2 | -15.0 | .
Cc1cc(C)cc(OCC(=O)NCCN2CCOCC2)c1 | 81.7 | 108.4 | -16.0 | 97.3
CCOC(=O)C1=NN(c2ccccc2)C(=O)C12CC(C)=C(C)CS2 (stereo unspecified) | 49.0 | 19.7 | -22.3 | .
CSc1nn(-c2ccccc2)cc1-c1nc(-c2ccccc2)cs1 | 73.9 | 86.3 | -13.3 | 101.7
COc1ccc2nc(NC3=NCN(Cc4cccnc4)CN3)nc(C)c2c1 | . | . | -22.6 | 102.2
O=C(NCCN1CCOCC1)c1cccc2c1OCCCO2 | 96.5 | 87.8 | -32.0 | 105.6
CCOc1ccc(N2C(=O)NC(=O)/C(=C\c3ccc(O)c(OCC)c3)C2=O)cc1 | . | . | -6.0 | 115.7
Cc1ccccc1CN1CCC(CNc2ncnc3onc(-c4ccc(F)cc4)c23)CC1 | 102.4 | 96.5 | . | 103.3
COc1cc2c(cc1OC)C(c1ccccc1)NCC2 (stereo unspecified) | 100.0 | 85.8 | . | 99.4
CN(C1CCCCC1)C1CCN(C(=O)c2cc(-c3cccnc3)n[nH]2)CC1 | . | . | -12.3 | 104.4
COc1cc(C2CC(=O)C3=C(C2)Nc2onc(C)c2C3c2ccccc2OC)ccc1O (stereo unspecified) | . | . | -23.9 | 107.4
Cc1ccc(OCC(=O)Nc2cccc(OCc3cc(=O)n4cccc(C)c4n3)c2)cc1C | 102.5 | 99.6 | . | 102.2
COc1ccc(Nc2c(-c3cc(Br)ccc3O)nc3ncccn23)cc1OC | 105.6 | 80.8 | -30.7 | 100.7
CC1(C)C(c2ccccc2)=[N+]([O-])C2(CCCCC2=O)N1O (stereo unspecified) | 102.9 | 97.5 | 17.2 | 101.7
Clc1ccc(-n2ncc3c(N4CCCC4)ncnc32)cc1 | 94.2 | 79.6 | -27.5 | 97.2&104.8
COC(=O)c1cc(-c2ccc(C)cc2)c2c(=O)n(C)c(=O)n(C)c2n1 | 93.2 | 88.9 | -10.7 | 99.9
O=C(Oc1ccc(F)cc1)c1cc(-c2ccc3c(c2)OCCO3)on1 | . | . | -18.6 | 93.7
CCc1ccc(Oc2coc3cc(OC(=O)c4cccs4)ccc3c2=O)cc1 | 124.1 | 84.3 | . | 101.5
COc1ccc(-n2c(-c3ccc(Cl)cc3)csc2=N)cc1OC | 88.1 | 69.7 | -19.4 | 102.3

Compound profiles, as listed above. Screens in order: Sa growth 42C, Sa growth 42C second temp, HCMV NEC inh, GIV Gai3 FP
Listed for COC(=O)c1cc(-c2ccc(C)cc2)c2c(=O)n(C)c(=O)n(C)c2n1 = 93.2, 88.9, -10.7, 99.9
Listed for CC1(C)C(c2ccccc2)=[N+]([O-])C2(CCCCC2=O)N1O (stereo unspecified) = 102.9, 97.5, 17.2, 101.7

Another view of 2 compounds above.
SMILES,Sa growth 42C,Sa growth 42C second temp,HCMV NEC inh,GIV Gai3 FP
CCOc1ccc(N(CC)C(=O)c2cc3c(s2)-c2ccc(Cl)cc2SC3)cc1,98.0,92.0,-1.1,108.4
O=C(NC1CCCCCC1)c1cc2ccccc2c(=O)[nH]1,116.5,87.2,-15.0,.

(further entries)
SMILES | Sa growth 42C | Sa growth 42C second temp | HCMV NEC inh | GIV Gai3 FP
CCN(CCCNC(=O)CSc1cc(=O)n(CC)c2ccccc12)c1cccc(C)c1 | 75.5 | 61.7 | -17.5 | 102.3
COc1ccc(-c2n[nH]c(C(F)(F)F)c2-c2cc3ccccc3o2)c(O)c1 | 3.9* | 5.8* | -14.6 | .
O=C(Nc1nc2c(Cl)cccc2s1)c1ccc(S(=O)(=O)N2CCc3ccccc32)cc1 | 102.1 | 88.2 | . | 103.7
CC(C)N1CCN(S(=O)(=O)c2ccc(Cl)cc2)CC1 | 84.2 | 107.6 | -14.7 | 101.6
CC(C)c1ccc(CNc2n[nH]c(-c3ccco3)n2)cc1 | 104.8 | 87.3 | -21.5 | 102.8
CCC(c1ccccc1)c1nnc(N)s1 (stereo unspecified) | 97.6 | 100.5 | -2.4 | 105.8
O=C(Cn1c(=S)[nH]c2ccccc21)c1ccc(-c2ccccc2)cc1 | 98.7 | 79.5 | -4.3 | .
